Tg IFNy HTS: blocks Toxoplasma gondii growth in the presence of IFN-gamma; 69,000 compounds, 3.8% hits; Toxoplasma gondii growth in IFN-gamma-treated host cells; active compounds read low; reference of the scale not given here; activity change, negative = inhibition, %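 (about 20 µM by stock and volumes)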; AID 1259416;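 active = below -70%; inconclusive = fit judged invalid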;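 also: host cells are HeLa cells infected with Toxoplasma gondii; parasite growth read as luciferase light; one replicate is shown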
The depositor's hits bear a star.

`COc1cccc(N2CC3(CCN(C(=O)c4cnc[nH]4)C3)CC2=O)c1` (stereo not drawn) gave Tg IFNy HTS 278.7.
`OCCN1C[C@@H](O)[C@@H](O)C(O)C1CO` (stereo partly drawn) gave Tg IFNy HTS 8.4.
`O=C(O)COCC(=O)Nc1cc(Cl)cc(Cl)c1` gave Tg IFNy HTS 27.1.
For Cc1ccc(CSc2nncn2-c2ccccn2)cc1 the results were Tg IFNy HTS 7.5.
CN(C)C(=O)N1C[C@H]2CC[C@@]3(N=C(c4ccccc4)NC3=O)[C@H]2C1 was read as Tg IFNy HTS 14.0.
C/C=C/c1ccc([C@H]2[C@@H](CO)N(CCC)[C@H]2CNC(=O)CN2CCOCC2)cc1 was read as Tg IFNy HTS 8.7.
O=C(Nc1ccc(S(=O)(=O)N2CCCC2)cc1)C(c1ccccc1)c1ccccc1 was read as Tg IFNy HTS inconclusive.
`CS(=O)(=O)n1nccc1/C=C/c1cccs1` gave Tg IFNy HTS 129.3.
CC(C)c1nccn1CCCNC(=O)c1ccc(N2CCOC(C)(C)C2)nc1 was read as Tg IFNy HTS inconclusive.
For CN(C)C(=O)N[C@H]1CN(C2CCOCC2)C2CCCOC21 (stereo partly drawn) the results were Tg IFNy HTS 6.5.
Screening O=C(NCc1cccc(Br)c1)c1c(O)c2cccnc2[nH]c1=O returned Tg IFNy HTS 7.2.
Cc1cn(CC(=O)N2CCCC(N(C)CCc3ccccc3)C2)c(=O)[nH]c1=O (stereo not drawn) was read as Tg IFNy HTS 10.1.
O=C(CCCN1C(=O)/C(=C\c2cccs2)SC1=S)Nc1ccccn1 was read as Tg IFNy HTS 11.4.
For O=C(CSc1nnc2n1CCCN2)c1cccs1 the results were Tg IFNy HTS 32.6.
O=C(Nc1ccc(Cl)cc1)Nc1ccccc1Sc1c(Cl)cncc1Cl was read as Tg IFNy HTS -97.0*.
COc1ccc(-c2cnc(-n3cnnc3)c(C)c2)cc1Cl was read as Tg IFNy HTS -32.0.
Screening CC(Cc1ccncc1)NC(=O)c1cc(Cn2cnc3ccccc32)[nH]n1 (stereo not drawn) returned Tg IFNy HTS 17.4.
COc1ccc(S(=O)(=O)N2C[C@H](OC)[C@@H]3COC[C@@H]32)cc1 was read as Tg IFNy HTS -0.6.
`Clc1ccc(-c2nc(C34CC5CC(CC(C5)C3)C4)cs2)cc1` gave Tg IFNy HTS 67.6.
C[C@@H]1C[C@H]2[C@@H]3CCC4=CC(=O)C=C[C@]4(C)[C@@]3(F)[C@@H](O)C[C@]2(C)[C@H]1C(=O)CO was read as Tg IFNy HTS 1.8.

The last 7 entries of the section before open the next one:
For O=C(CSc1nnc2n1CCCN2)c1cccs1 the results were Tg IFNy HTS 32.6.
O=C(Nc1ccc(Cl)cc1)Nc1ccccc1Sc1c(Cl)cncc1Cl was read as Tg IFNy HTS -97.0*.
COc1ccc(-c2cnc(-n3cnnc3)c(C)c2)cc1Cl was read as Tg IFNy HTS -32.0.
Screening CC(Cc1ccncc1)NC(=O)c1cc(Cn2cnc3ccccc32)[nH]n1 (stereo not drawn) returned Tg IFNy HTS 17.4.
COc1ccc(S(=O)(=O)N2C[C@H](OC)[C@@H]3COC[C@@H]32)cc1 was read as Tg IFNy HTS -0.6.
`Clc1ccc(-c2nc(C34CC5CC(CC(C5)C3)C4)cs2)cc1` gave Tg IFNy HTS 67.6.
C[C@@H]1C[C@H]2[C@@H]3CCC4=CC(=O)C=C[C@]4(C)[C@@]3(F)[C@@H](O)C[C@]2(C)[C@H]1C(=O)CO was read as Tg IFNy HTS 1.8.
For CNC(=O)c1cc(=O)n(CC(=O)Nc2ccc(C)c(F)c2)c2ccccc12 the results were Tg IFNy HTS 8.9.
For CN(C)C(=O)n1nnnc1Cc1ccc(-c2ccccc2)cc1 the results were Tg IFNy HTS inconclusive.
Cc1ccc(N2CC3(CCN(C(=O)C4CC4)C3)CC2=O)s1 (stereo not drawn) was read as Tg IFNy HTS -1.3.
CC(c1ccccc1)n1c(SCC(=O)O)nnc1-c1cccnc1 (stereo not drawn) was read as Tg IFNy HTS 4.5.
`CO[C@H]1CN(C)C(=O)c2cc(NC(=O)c3ccc(F)cc3)ccc2OC[C@H](C)N(C(=O)CC2CC2)C[C@H]1C` gave Tg IFNy HTS 65.9.
`CC1=Nc2ccc3ccccc3c2C1(C)C` gave Tg IFNy HTS 96.0.
O=C(C[C@@H]1CC[C@H]2[C@@H](COC[C@H](O)CN2CC2CCOCC2)O1)NCC1CCCCC1 was read as Tg IFNy HTS 3.1.
CNC(=O)[C@@H]1COC[C@@H]2CN(Cc3nccs3)C[C@@H]21 was read as Tg IFNy HTS -35.9.
For O=C(CC1Nc2c3ccccc3nc(=S)n2C1=O)NC1CCCCC1 (stereo not drawn) the results were Tg IFNy HTS 2.1.
For O=C(C1CC2(CCNCC2)CN1)N1CCCN(CCCc2ccccc2)CC1 (stereo not drawn) the results were Tg IFNy HTS -0.8.
For Cc1nc(CC(=O)N2CCCCC2c2nnc3n2CCN(C)C3)cs1 (stereo not drawn) the results were Tg IFNy HTS -47.5.
Cc1nc(=O)n(CC(=O)NCc2cccc(N3CCCCC3)c2)c(C)c1C was read as Tg IFNy HTS -1.5.
Screening CCCc1nc2c(C)cc(-c3nc4ccccc4n3C)cc2n1Cc1ccc(-c2ccccc2C(=O)O)cc1 returned Tg IFNy HTS -46.2.
CN(Cc1cc(C(C)(C)C)n[nH]1)C(=O)c1cn2c3c(cccc3c1=O)CC2 was read as Tg IFNy HTS inconclusive.
Screening COc1c[nH]c(C(=O)N2CCCC(N3CCc4ccccc4C3)C2)cc1=O (stereo not drawn) returned Tg IFNy HTS -8.0.
`c1coc(-c2ncc(C3NCCc4[nH]cnc43)cn2)c1` (stereo not drawn) gave Tg IFNy HTS -1.7.
Screening O=C(Cc1ccccc1)N1CC[C@H]2[C@H](CO)Nc3ccc(C4=CCCCC4)cc3[C@H]21 returned Tg IFNy HTS -50.0.
Screening O=c1cc[nH]c2cc(Cl)ccc12 returned Tg IFNy HTS 11.6.
COc1ccc(CCCC(=O)N2CCCC3(CN(C)C(=O)O3)C2)cc1 (stereo not drawn) was read as Tg IFNy HTS -6.1.
Screening CN1CCN(C(=O)C[C@@H]2CC[C@@H]3[C@H](COC[C@H](O)CN3C(=O)Nc3ccc4c(c3)OCO4)O2)CC1 returned Tg IFNy HTS 24.1.

5 compounds picked at random from those above, as already listed:
`c1coc(-c2ncc(C3NCCc4[nH]cnc43)cn2)c1` (stereo not drawn) gave Tg IFNy HTS -1.7.
Screening O=C(Cc1ccccc1)N1CC[C@H]2[C@H](CO)Nc3ccc(C4=CCCCC4)cc3[C@H]21 returned Tg IFNy HTS -50.0.
Screening CCCc1nc2c(C)cc(-c3nc4ccccc4n3C)cc2n1Cc1ccc(-c2ccccc2C(=O)O)cc1 returned Tg IFNy HTS -46.2.
COc1ccc(CCCC(=O)N2CCCC3(CN(C)C(=O)O3)C2)cc1 (stereo not drawn) was read as Tg IFNy HTS -6.1.
Cc1nc(=O)n(CC(=O)NCc2cccc(N3CCCCC3)c2)c(C)c1C was read as Tg IFNy HTS -1.5.

Additional structures:
Screening Cn1cc(CN2CCC(CNC(=O)c3cnc4ccccc4c3)C2)cn1 (stereo not drawn) returned Tg IFNy HTS -10.5.
For CCNC(=O)c1cccc(-n2ccc(-c3cccnc3)n2)c1 the results were Tg IFNy HTS 10.9.
Screening O=C(c1ccncc1)N1C[C@@H]2[C@H](c3ccccc31)[C@H](CO)N2C(=O)CN1CCOCC1 returned Tg IFNy HTS -3.8.
COc1ccc(S(=O)(=O)N(C)C[C@@H]2Oc3c(NC(=O)c4nc5ccccc5s4)cccc3C(=O)N([C@H](C)CO)C[C@H]2C)cc1 was read as Tg IFNy HTS -3.9.
`Cc1noc(C)c1C(=O)Nc1ccc(Cl)cc1` gave Tg IFNy HTS 9.8.
For Cc1ccc(CN2CCN(Cc3cnc(N4CCCC4)s3)CC2=O)cc1 the results were Tg IFNy HTS -4.4.
Screening COc1ccc(C2CCCN2Cc2nc3ccccc3n2C)cc1OC (stereo not drawn) returned Tg IFNy HTS 2.2.
For COc1ccc([C@H]2CC=CC[C@@H](C)Oc3ccccc3C(=O)N(C)[C@H](C(C)C)C(=O)N2)c(OC)c1 (mixture of isomers) the results were Tg IFNy HTS 2.1.
`COCC(=O)N1[C@@H]2Cn3c(ccc(/C=C/c4ccccc4)c3=O)[C@H]1[C@@H](C(=O)N1CCOCC1)[C@@H]2CO` gave Tg IFNy HTS 2.7.
`c1ccc(-c2ccsc2-c2ccccc2)cc1` gave Tg IFNy HTS -37.7.
Screening COCCC(=O)c1cc2c(c3ccccc3n2C(C)C)n1-c1ncccn1 returned Tg IFNy HTS -24.6.
`CC1=NOC(C(=O)N2CCC(c3nn(C)c(=O)n3-c3ccccc3)CC2)C1` (stereo not drawn) gave Tg IFNy HTS -27.8.
Cc1cc(C)n(Cc2ccc(C(=O)Nc3nnc(CCN4CCC(C)CC4)s3)cc2)n1 was read as Tg IFNy HTS -5.3.
For COCC(=O)N1CCn2cc(CN(C)Cc3cccnc3)nc2C1 the results were Tg IFNy HTS 1.8.
`CC(=O)N=c1sc2ccccc2n1C` gave Tg IFNy HTS 14.0.
COc1ccc2c(c1)NC1(CCN(S(=O)(=O)c3ccc(Br)s3)CC1)c1cccn1-2 was read as Tg IFNy HTS 13.3.
For COc1ccccc1N(Cc1nc(-c2ccccc2)oc1C)S(=O)(=O)c1ccc(C)cc1 the results were Tg IFNy HTS -0.9.
COc1ccc(C(=O)CC2OC(=O)c3c2ccc(OC)c3OC)cc1 (stereo not drawn) was read as Tg IFNy HTS 19.1.
For CCS(=O)(=O)N1CCC2(CC1)OC(=O)C(C)=C2C(=O)NCC(C)c1ccccc1 (stereo not drawn) the results were Tg IFNy HTS 23.4.
`CCOc1cccc(-c2noc(-c3nnn(Cc4nc(-c5ccccc5)oc4C)c3C)n2)c1` gave Tg IFNy HTS 6.9.
For Cc1cc(NC(=O)c2cccc(CN3CCC(C(N)=O)CC3)c2)ccc1F the results were Tg IFNy HTS -11.5.
Screening CC(=O)N1CCC(C(=O)NCc2ccccc2)(N(Cc2ccco2)C(=O)c2ccc(Br)cc2)CC1 returned Tg IFNy HTS -29.9.
Cc1ccc(C(C)CCN2CCC(NS(C)(=O)=O)CC2)o1 (stereo not drawn) was read as Tg IFNy HTS -1.9.
CN(CCn1ccc2ccccc21)Cc1ncc[nH]1 was read as Tg IFNy HTS -1.8.
Screening CCOc1cccc(-c2cccc(-n3cnnc3)c2)c1 returned Tg IFNy HTS -45.1.
For O=C(CN1C(=O)CCc2cc(S(=O)(=O)N3CCCCC3)ccc21)N1CCN(c2ccccc2)CC1 the results were Tg IFNy HTS -21.5.
`Nc1sc(-c2ccccc2)cc1C(=O)O` gave Tg IFNy HTS 23.0.
FC(F)(F)c1ccc(-c2noc(/C=C/c3ccccc3)n2)cc1 was read as Tg IFNy HTS 81.3.
Cc1cc(C)nc(N(C)CCCc2cnn(C)c2)n1 was read as Tg IFNy HTS 1.8.
c1ccc(C2CN(Cc3ccco3)C(c3ccccc3)O2)cc1 (stereo not drawn) was read as Tg IFNy HTS 10.3.
For COc1ccc(Nc2nc(-c3nnc(-c4cccc(C)c4)o3)nc3ccccc23)cc1 the results were Tg IFNy HTS inactive.
`C=CC1=C(C(=O)O)N2C(=O)C(NC(=O)Cc3ccccc3)C2SC1` (stereo not drawn) gave Tg IFNy HTS -9.5.
For CCc1nc(CN2CCCC(CNC(=O)NC(C)(C)C)C2)c(C)[nH]1 (stereo not drawn) the results were Tg IFNy HTS 12.8.
For O=C(NC[C@H]1[C@H](c2ccccc2)[C@H](CO)N1Cc1cccnc1)c1ccccn1 the results were Tg IFNy HTS -1.4.
Screening CN1CCN(c2ncnc3c2cnn3CC(=O)NCCCc2ccccc2)CC1 returned Tg IFNy HTS -18.3.
`Cc1cccn2cc(-c3ccc(NC(=O)CNC(=O)c4ccccc4)cc3)nc12` gave Tg IFNy HTS 60.5.
O=C(c1cc(=O)c2ccccc2o1)N1Cc2cnn(CCO)c2C1 was read as Tg IFNy HTS -0.1.
`Cc1ccsc1C(=O)N1CCC2(C1)CN(c1ccccc1)C(=O)CN2C` (stereo not drawn) gave Tg IFNy HTS 22.8.
For CC(C)c1ccc(S(=O)(=O)N2CCC3(CC2)NCCN=C3NC2CCCCC2)cc1 the results were Tg IFNy HTS -13.0.
Screening Cc1ccc2[nH]c(CCCNC(=O)c3ccc(=O)[nH]c3)nc2c1C returned Tg IFNy HTS 8.8.
`N#C[C@H]1[C@H](c2ccc(-c3cccnc3)cc2)[C@@H](CO)N1C(=O)C1CCOCC1` gave Tg IFNy HTS 4.9.
`COc1ncccc1CN1Cc2cnn(C)c2C(COCC2CC2)C1` (stereo not drawn) gave Tg IFNy HTS -0.6.
COc1ccc2c3c(n(C)c2c1)[C@H](CO)N(Cc1ccccc1)CC31CN(CC2CC2)C1 was read as Tg IFNy HTS 64.5.
`CCC(=O)N1[C@@H](CO)[C@@H]2c3ccccc3N(C(=O)Nc3ccc(Cl)cc3)C[C@@H]21` gave Tg IFNy HTS 17.0.
CCOC(=O)CSc1nc(N)cc(=O)[nH]1 was read as Tg IFNy HTS -14.2.
C[C@H]1O[C@@H](n2cc(F)c(=O)[nH]c2=O)[C@H](O)[C@@H]1O was read as Tg IFNy HTS -91.3*.
Cn1cc(C(=O)N2CC[C@@H](c3ccc4ccccc4c3)[C@H](O)C2)cn1 was read as Tg IFNy HTS -6.6.
For CC(C)C(=O)NCCc1csc(C2CCN(C(=O)NC(C)(C)C)CC2)n1 the results were Tg IFNy HTS 39.7.
Screening COc1ccc(C2c3[nH]c4ccccc4c3CCN2C(=O)c2cccc(OC)c2)cc1 (stereo not drawn) returned Tg IFNy HTS -98.7*.
Screening CCCS(=O)c1ccc2nc(NC(=O)OC)[nH]c2c1 (stereo not drawn) returned Tg IFNy HTS 18.1.
For CCOC(=O)c1cnc(-c2ccccc2)nc1NCc1ccccc1 the results were Tg IFNy HTS 86.6.
For Cc1ccc(-c2nn3c(C)nnc3c3ccccc23)cc1S(=O)(=O)NCc1cccnc1 the results were Tg IFNy HTS 12.8.
Screening CC(C)Cc1cc(C(=O)N2CCCC3(CN(C)C(=O)O3)C2)on1 (stereo not drawn) returned Tg IFNy HTS 3.8.
`Cc1ccc(N2CC[C@H]3OCC[C@]3(C(=O)NC(C)C)C2)nn1` gave Tg IFNy HTS 127.0.
`Cc1cc(C(=O)N(C)Cc2nc3ccccc3n2C)cc(S(N)(=O)=O)c1C` gave Tg IFNy HTS 6.3.

This is a subset; count on the stated rates, not on these rows.
